# miR-21 reporter: miR-21 reporter, rising signal. HeLa miR-21 FLuc reporter, luciferase, 48 h. Potency, µM (top dose mostly 38.3 µM), for the others: at the highest dose reporter change, positive = more light. 340,000 tested, under 10 active. AID 2288; active = well fitted rising curve with a large enough effect; inconclusive = small, poorly fitted or top-dose-only effect; inactive = no such curve, though single readings can be large or run the other way;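 also: % of control where 0% means no effect; miR-21 action dims this reporter so a rising signal means less miR-21 action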
#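 Compounds were titrated across several concentrations (up to approximately 40 uM) and incubated 48 hours with HeLa miR-21-FLuc reporter cells (miR-21 target sequence downstream of FLuc, endogenous miR-21). Readout was firefly luciferase luminescence after lytic detection reagent.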
# The depositor's hits bear a star; ? = inconclusive. Only part of the results is shown. The share of hits here may be higher or lower than overall.
smiles,miR-21 reporter
Cc1ccccc1Nc1c(-c2cccc(N(C)C)c2)nc2ccc(Br)cn12,-10%
CCc1ccc(Cn2c(CNS(=O)(=O)c3ccc(C)c(C)c3)nc3cccnc32)cc1,-6%
O=C(NC1CCCC1)c1ccc2c(c1)N(Cc1c(F)cccc1Cl)C(=O)c1ccccc1S2,5%
COc1ccc(C2c3cccn3CCN2S(=O)(=O)c2ccccc2[N+](=O)[O-])cc1OC (stereo unspecified),-1%
Cc1ccc2c(=O)cc(C(=O)Nc3c(C(=O)c4ccccc4)oc4ccccc34)oc2c1,0%
CCC(C(=O)N1CCN(c2cc(Cl)ccc2C)CC1)n1nc(C)n2c(cc3occc32)c1=O (stereo unspecified),?
Cc1cccc(N2CCN(C(=O)C3CCN(S(=O)(=O)c4cccs4)CC3)CC2)c1C,2%
CCCCN(CCCC)CCNC(=O)Cn1nc(C)n2c(cc3sccc32)c1=O,0%
Cc1ccc(CNC(=O)C2CCN(Cc3nc(-c4ccccc4C)oc3C)CC2)cc1,5%
O=C(COCc1cc(-c2ccc3c(c2)OCO3)on1)Nc1cccc(O)c1,?
CCOC(=O)c1c(C)[nH]c(C)c1S(=O)(=O)N1CCC(C(=O)NCc2ccc(N(C)C)cc2)CC1,3%
CCc1ccc(Oc2nc3c(C)cccn3c(=O)c2/C=C(\C#N)c2nc3ccccc3[nH]2)cc1,-1%
Cc1coc2c(C)c3oc(=O)c(CC(=O)N4CCCCC4)c(C)c3cc12,3%
COc1cccc(CNC(=O)Cn2c(C)c3cnn(-c4ccccc4)c(=O)c3c2C)c1,3%
COc1ccccc1CNC(=O)c1oc2ccc3c(c2c1C)C(=O)CC(C)(C)O3,-26%
CCC(C)NC(=O)Cn1ncc2c(C)n(Cc3ccc(F)cc3)c(C)c2c1=O (stereo unspecified),-22%
CCOc1ccc(CCNC(=O)Cn2nc(CC)n3c(cc4sccc43)c2=O)cc1,0%
Cc1ccc(Cn2c(CN3CCC(C(=O)NCCc4ccccc4)CC3)cc3ccccc32)cc1,9%
COc1ccc(-c2nc3scc(CCNS(=O)(=O)c4c(C)noc4C)n3n2)cc1OC,-2%
CCc1ccccc1N(C)C(=O)c1cnc(N2CCOCC2)c2ccccc12,1%
CCCCc1nc2ccccc2n1CC(=O)N(COCC)c1c(C)cccc1CC,?
CC1CCCN(S(=O)(=O)c2ccc(NC(=O)c3nc(SC(C)C)ncc3Cl)cc2)C1 (stereo unspecified),?
COc1cccc(N2CCN(C(=O)c3cnn(-c4ccccc4Cl)c3C3CCN(C(=O)OC(C)(C)C)CC3)CC2)c1,?
CCOc1ccc(CC(=O)NC2CC(=O)N(c3cccc(F)c3)C2)cc1 (stereo unspecified),-4%
COc1cc(OC)c(NC(=O)c2cnc(N3CCCC3)nc2C)cc1Cl,-9%
COc1ccc(-c2cc(C(C)=O)c(C)n2CCC(=O)Nc2ccc(C(F)(F)F)cc2)cc1,?
CCOc1ccc(-c2cc3nc(C4CCN(C(=O)OC(C)(C)C)CC4)c(C(=O)Nc4ccc(C)cc4Cl)cn3n2)cc1,-7%
COc1ccc(N(Cc2cccs2)C(=O)c2ccc(OC)c(Cl)c2)cc1,10%
Cc1nc(-c2ccc(C)c(S(=O)(=O)N3CCC(C(=O)Nc4ccc(Cl)cc4)CC3)c2)no1,?
COc1ccccc1-c1nc(SCC(=O)c2ccccc2)n[nH]1,-32%
Cc1cccc(N2CCN(C(c3ccc(F)cc3)c3nnc(-c4ccccc4)o3)CC2)c1C (stereo unspecified),0%
CCCOc1ccc(Nc2cc(C)nc(C)n2)cc1,-47%

# Not a retest: an excerpt of the list.
smiles,miR-21 reporter
COc1ccc(-c2cc(C(C)=O)c(C)n2CCC(=O)Nc2ccc(C(F)(F)F)cc2)cc1,?
CCOc1ccc(-c2cc3nc(C4CCN(C(=O)OC(C)(C)C)CC4)c(C(=O)Nc4ccc(C)cc4Cl)cn3n2)cc1,-7%
COc1ccc(N(Cc2cccs2)C(=O)c2ccc(OC)c(Cl)c2)cc1,10%
Cc1nc(-c2ccc(C)c(S(=O)(=O)N3CCC(C(=O)Nc4ccc(Cl)cc4)CC3)c2)no1,?

# Next part.
smiles,miR-21 reporter
CCN(c1ccc(OC)cc1)S(=O)(=O)c1ccc2[nH]c3c(c2c1)CCCCC3,30%
CCc1ccccc1NC(=O)Cc1c(C(=O)O)[nH]c2ccc(Cl)cc12,2%
CCN(CC)S(=O)(=O)c1ccc2c(c1)N(CC(=O)Nc1ccc(Cl)cc1)C(=O)C1CCCN21 (stereo unspecified),-7%
COc1ccc(-c2cc(C(=O)Nc3cccc(O)c3)on2)cc1OC,14%
O=c1c(-c2cc(-c3ccc(F)cc3)nc3c2COc2ccc(Cl)cc2-3)coc2ccc(F)cc12,-6%
Cc1nc2c(c(C)nn2C(C)(C)C)c(C)c1CCC(=O)Nc1ccc(Br)cc1Br,-5%
O=C(Nc1ccc(OCc2cc(=O)n3c4c(sc3n2)CCCC4)cc1)c1ccc(F)cc1,-3%
Cc1ccc(C)c(N2CCN(c3nc4ccc(Cl)cc4n4cnnc34)CC2)c1,0%

# Exported as labelled records: entries from further up
CC1CCCN(S(=O)(=O)c2ccc(NC(=O)c3nc(SC(C)C)ncc3Cl)cc2)C1 (stereo unspecified)
  miR-21 reporter = ?

COc1cccc(N2CCN(C(=O)c3cnn(-c4ccccc4Cl)c3C3CCN(C(=O)OC(C)(C)C)CC3)CC2)c1
  miR-21 reporter = ?

CCOc1ccc(CC(=O)NC2CC(=O)N(c3cccc(F)c3)C2)cc1 (stereo unspecified)
  miR-21 reporter = -4%

# (list continues)
smiles,miR-21 reporter
COc1ccc(OC)c(CCNC(=O)CCn2c(=O)c3cccn3c3cccnc32)c1,-18%
Cc1ccccc1CCNC(=O)c1cc2cc(S(=O)(=O)N3CCCCC3)ccc2n1C,-1%
CCOc1ccc2oc(=O)cc(CN3CCN(Cc4ccc(F)cc4)CC3)c2c1,3%
Cc1ccc(C(=O)COC(=O)CCC(=O)Nc2ccc(Oc3cc(C)ccc3C(C)C)cc2)cc1,7%
CCOc1ccccc1NC(=O)Cn1c(=O)oc2cc(S(=O)(=O)NCc3ccccc3)ccc21,6%
CCc1ccc(-c2ccc3nnc(SCC(=O)Nc4cccc(C(C)=O)c4)n3n2)cc1,5%
CCOC(=O)c1c(C)[nH]c(C)c1S(=O)(=O)N(C)CC(=O)Nc1ccc(C)cc1Br,1%
COc1ccc(C(=O)NCC(c2ccc(N(C)C)cc2)N2CCc3ccccc32)c(OC)c1 (stereo unspecified),0%
CCN1C(C(=O)c2ccccc2)=C(OC(=O)c2ccc(Cl)cc2)c2ccccc2S1(=O)=O,?
CCOC(=O)c1ccc(NC(=O)/C(C#N)=C/c2ccc(OC)cc2)cc1,-3%
CCCN(C(=O)Cn1ncc2c([nH]c3ccccc32)c1=O)c1ccc(F)cc1,15%
COc1ccc(C)cc1S(=O)(=O)Nc1cccc(-c2ccc(N3CCC(C)CC3)nn2)c1,-46%
CCOc1ccc(C(=O)Nc2ccc(Cl)c(-c3nc4cc(C)cc(C)c4o3)c2)cc1,-4%
Cc1nn(CC(=O)Nc2ccc(C(C)C)cc2)c(=O)c2c(C)n(-c3ccc(Cl)cc3)nc12,3%
COc1ccc(CN(Cc2ccco2)C(=O)COc2ccccc2OC)cc1,-3%
CCc1ccc(NC(=O)c2ccc(F)c(S(=O)(=O)N(C)C3CCCCC3)c2)cc1,27%
CCOc1ccccc1NC(=O)c1sc2nc(C)cc(C)c2c1N,-5%
CCCC12CN3CC(CCC)(CN(C1)C3c1ccccc1)C2=O (stereo unspecified),-12%
COc1ccc(CCNc2ncnc3c2cnn3-c2cc(Cl)ccc2C)cc1,?
CC(C)(C)OC(=O)N1CCC(c2c(C(=O)N3CCN(C(=O)c4ccco4)CC3)cnn2-c2ccccc2)CC1,3%
CCSc1ncc(Cl)c(C(=O)N(Cc2ccc(N(C)C)cc2)Cc2ccco2)n1,30%
O=C(Cn1c(=O)n(-c2cccc(Cl)c2)c(=O)c2sc3ccccc3c21)N1CCCC1,8%
CC(=O)N1c2c(cc(Br)cc2S(=O)(=O)Nc2ccccc2C)CC1C (stereo unspecified),12%
Cn1cc(S(=O)(=O)N2CCc3ccccc32)cc1C(=O)Nc1ccc(C(F)(F)F)cc1,?
CCOC(=O)c1ccccc1NC(=O)CCc1nc(-c2ccc(C)cc2)no1,0%
CCOc1ccc(Cn2nnc(C(=O)Nc3cccc(SC)c3)c2N)cc1,-20%
Cc1cc(C)cc(N2CCn3c2nc2c3c(=O)n(Cc3ccc(Cl)cc3)c(=O)n2C)c1,-2%
Cc1ccc(C#N)c(=O)n1CC(=O)Nc1ccccc1C(F)(F)F,-3%
CCC(C(=O)N1CCN(c2cccc(C)c2C)CC1)n1nc(C)c2sc3ccccc3c2c1=O (stereo unspecified),-63%
Cc1ccccc1-n1c(=O)c2c3c(sc2n2cnnc12)CCCC3,-18%
CC1CCN(S(=O)(=O)c2ccc3c(c2)N(CC(=O)NC(C)c2ccccc2)C(=O)CO3)CC1 (stereo unspecified),-9%
Cc1cccc(Cn2c(=O)n(-c3cc(C)cc(C)c3)c(=O)c3oc4ccccc4c32)c1,3%
CCCCNc1ccc(-c2nc(-c3ccco3)no2)cc1[N+](=O)[O-],0%
CCOc1ccc(S(=O)(=O)n2nc(C)c(S(=O)(=O)N3CCCCC3)c2C)cc1,-1%
Cc1nc2ccccn2c(=O)c1NC(=O)c1cccc(F)c1,-35%
Cc1cccc(NC(=O)CN(C)S(=O)(=O)c2ccc3c(c2)c(=O)n(C)c(=O)n3C)c1C,-2%
Cc1ccc(C)c(S(=O)(=O)NCCc2csc(-c3ccc(Cl)cc3)n2)c1,15%
Cc1ccc(NC(=O)CSc2[nH]c(=O)ncc2C)cc1,-40%
Cn1c(=O)c2c(-c3cccc(Br)c3)n(C(C)(C)CO)cc2n(C)c1=O,-3%
COc1ccc(NC(=O)NCc2cccn2Cc2ccc(F)cc2)cc1OC,0%
COc1ccc(CNC(=O)C2CCN(C(=O)c3ccc(-n4ccc5ccccc54)s3)CC2)cc1,7%
O=C(Cn1nc(Cc2cccnc2)c2ccccc2c1=O)Nc1cccc(C(F)(F)F)c1,0%
CCOC(=O)c1ccc(N2C(=O)c3[nH]nc(-c4ccc(OC)cc4)c3C2c2cccc(O)c2)cc1 (stereo unspecified),?
CCn1ccc2c(OCC(=O)Nc3ccc(C(C)=O)cc3)cccc2c1=O,7%
CN(C)c1ccc(CNC(=O)c2ccc(NC(=O)c3nsc4ccccc34)cc2)cc1,-55%
Cc1cc(C)c(S(=O)(=O)NCc2ccc3c(c2)CCN3C(=O)c2ccccc2)c(C)c1,-14%
CCc1ccccc1NC(=O)C(CCSC)NS(=O)(=O)c1ccc2c(c1)oc(=O)n2C (stereo unspecified),-3%
COc1cccc(C2=C(C(C)=O)Sc3nncn3N2C(C)=O)c1,19%
COc1ccc2cc(-c3nc(Cl)c4c5c(sc4n3)CC(C)CC5)c(=O)oc2c1 (stereo unspecified),-3%
O=C(NCCC1=CCCCC1)C1CCN(C(=O)N2CCOc3ccc(Cl)cc32)CC1,17%
O=c1c2sc3ccccc3c2n(Cc2ccccc2F)c(=O)n1CCc1ccccc1,-30%
O=C(Nc1cccc(Cl)c1Cl)c1ccc2c(c1)N(Cc1cccc(Cl)c1)C(=O)c1ccccc1S2(=O)=O,-2%
COc1ccccc1NC(=O)c1sc2nc3c(cc2c1N)CN(Cc1ccccc1)CC3,?
COC(=O)CCNC(=O)N1CCN(c2nnc(C)c3c(C)n(-c4ccc(Cl)cc4)nc23)CC1,3%
Cc1ccc(Cn2c(CN3CCC(C(=O)NCc4cccnc4)CC3)cc3ccccc32)cc1,17%
CCn1cc(C(=O)NCCC(C)C)c(=O)c2cc(S(=O)(=O)N(C)C3CCCCC3)ccc21,-4%

# (cont.)
smiles,miR-21 reporter
C=Cc1ccc(Cn2c(C(=O)O)c(CNCc3cc(Br)ccc3OC)c3ccc(C)cc32)cc1,-2%
O=C(C1CCN(S(=O)(=O)c2cccc3nonc23)CC1)N1CCN(c2ccc(F)cc2)CC1,13%
CN(C1CCCCC1)S(=O)(=O)c1ccc2c(c1)c(=O)c(C(=O)NCc1ccccc1Cl)cn2C,-3%
O=C(NCCCc1nc2ccccc2n1Cc1ccccc1Cl)C1CCCCC1,6%
O=C(CN1C(=O)COc2ccc(S(=O)(=O)N3CCOCC3)cc21)N1CCN(c2ccc(F)cc2)CC1,-1%
CCCOc1ccc(C(=O)Nc2ccc3oc(-c4ccc(N(C)C)cc4)nc3c2)cc1,-27%
O=C(Nc1cc(C(F)(F)F)ccc1Cl)c1nc2ccccc2nc1N1CCCCC1,1%
O=C(CSc1n[nH]c(-c2ccccc2Cl)n1)N1CCN(c2ccccc2F)CC1,-8%
CCC(=O)N1CCc2cc(S(=O)(=O)NC(Cc3ccccc3)C(=O)Nc3cccc(OC)c3)ccc21 (stereo unspecified),-3%
CCN(CC)c1ccc2nc3c(=O)n(C)c(=O)n(C)c3nc2c1,-7%
O=C(CCC(=O)N1CC2CCCN2c2ccccc21)NCc1ccc(Cl)cc1 (stereo unspecified),2%
Cn1nnnc1SCCCNCc1ccccc1OCc1ccccc1Cl,?
CCOC(=O)c1ccccc1NC(=O)CSc1nc(=O)[nH]c2c1CCCC2,0%
COC(=O)c1ccc(NC(=O)c2cc(=O)c3ccc(C)cc3o2)cc1,0%
Cc1cccc(-c2nc3scc(CCNC(=O)c4ccccc4Cl)n3n2)c1,11%
N#Cc1c(C(F)(F)F)cc(-c2cccs2)nc1SCC(=O)Nc1ccc(Cl)cc1,2%
CC1=C(C(=O)OCc2ccc(C)cc2)C(c2ccccc2Cl)CC(=O)N1 (stereo unspecified),20%
